NOMO-1 viab – STK33 inhibitor candidate reducing NOMO-1 cell viability; NOMO-1 AML viability, CellTiter-Glo luminescence, 72 h; inhibition, % (no concentration beside the values); 37,000 compounds, 7.5% hits;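 active = most replicates above 80%; inconclusive = exactly half above 80%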;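 note: wells of about 30 µL received 25 nL stock; 0% = median of vehicle wells and 100% = reference inhibitor level; the first replicate is given; inactives centre near 10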
Numbers without * were called inactive; ? = inconclusive.

molecule,NOMO-1 viab
C[C@H](CO)N1C[C@H](C)[C@@H](CN(C)Cc2ccc(C(F)(F)F)cc2)Oc2ccc(NS(=O)(=O)c3ccc(Cl)cc3)cc2C1=O,67.9
COc1ccc(NC(=O)Nc2ccc3c(c2)CC(=O)N([C@@H](C)CO)C[C@H](C)[C@H](CN(C)S(=O)(=O)c2ccc(C)cc2)O3)cc1,128.0*
CCSC1=N/C(=C\c2cccc(F)c2)C(=O)S1,44.6
O=C1CC(Sc2nnc(-c3ccccc3O)o2)C(=O)N1c1ccccc1 (stereo unspecified),122.3*
COc1c2c(cc3oc(=O)ccc13)OC(C)(C)C=C2,4.9
O=C(CSc1nc(-c2ccccc2)cc(-c2ccccc2)n1)Nc1cccc([N+](=O)[O-])c1,62.6
C[C@H]1CN([C@@H](C)CO)C(=O)c2cccc(NC(=O)c3cnccn3)c2O[C@@H]1CN(C)C(=O)Nc1cccc2ccccc12,20.1
COc1ccc(S(=O)(=O)Nc2ccc3c(c2)C(=O)N([C@H](C)CO)C[C@H](C)[C@H](CN(C)S(=O)(=O)c2cn(C)cn2)O3)cc1,11.3
COc1cc(NC(=O)COc2c(Cl)c(C)c(Cl)c(C)c2Cl)c(OC)cc1Cl,7.7
C[C@H]1CN([C@@H](C)CO)C(=O)c2cccc(NC(=O)Nc3ccccc3)c2O[C@@H]1CN(C)Cc1ccc(C(F)(F)F)cc1,104.0*
COc1ccc(S(=O)(=O)Nc2ccc3c(c2)C(=O)N([C@@H](C)CO)C[C@H](C)[C@@H](CN(C)CC2CC2)O3)cc1,6.4
CN1CCc2nc(SCC(=O)Nc3ccc(C(C)(C)C)cc3)c(C#N)cc2C1,?
O=C(CSc1ccccn1)Nc1cccc2ccccc12,9.6
C[C@H]1CN([C@@H](C)CO)C(=O)c2cccc(NS(=O)(=O)c3cn(C)cn3)c2O[C@@H]1CN(C)Cc1ccc(C(F)(F)F)cc1,-2.6
Cc1cccc(NC(=O)CSc2n[nH]c(-c3ccccc3)n2)c1,-10.8
COc1c(OC)c2occc2c2oc(=O)ccc12,12.3
COc1cccc(NC(=O)CSc2nnc(-c3ccncc3)n2-c2ccc(C)cc2)c1,4.0
CS(=O)(=O)N(CC(=O)Nc1ccccc1C(=O)O)c1ccc(F)cc1,9.2
O=C(CCc1ccccc1)Nc1ccccc1C(=O)N1CCOCC1,5.4
COC(=O)c1ccc(NC(=O)CN(c2ccc(I)cc2)S(C)(=O)=O)cc1,4.0
Cc1cc(NC(=O)C(=O)NCCCN2CCOCC2)ccc1Br,17.9
C[C@@H]1CN([C@H](C)CO)C(=O)Cc2cc(NC(=O)NC3CCCCC3)ccc2O[C@@H]1CN(C)S(=O)(=O)c1ccc(Cl)cc1,21.7
Cc1noc(C)c1NC(=O)Nc1cccc2c1O[C@@H](CN(C)C(=O)Nc1ccccc1)[C@@H](C)CN([C@H](C)CO)C2=O,5.8
COc1cc(NC(=O)COc2ccc(Br)cc2)ccc1NC(=O)c1ccccc1Cl,13.7

Next part; the last six above are carried over.
molecule,NOMO-1 viab
O=C(CCc1ccccc1)Nc1ccccc1C(=O)N1CCOCC1,5.4
COC(=O)c1ccc(NC(=O)CN(c2ccc(I)cc2)S(C)(=O)=O)cc1,4.0
Cc1cc(NC(=O)C(=O)NCCCN2CCOCC2)ccc1Br,17.9
C[C@@H]1CN([C@H](C)CO)C(=O)Cc2cc(NC(=O)NC3CCCCC3)ccc2O[C@@H]1CN(C)S(=O)(=O)c1ccc(Cl)cc1,21.7
Cc1noc(C)c1NC(=O)Nc1cccc2c1O[C@@H](CN(C)C(=O)Nc1ccccc1)[C@@H](C)CN([C@H](C)CO)C2=O,5.8
COc1cc(NC(=O)COc2ccc(Br)cc2)ccc1NC(=O)c1ccccc1Cl,13.7
Cc1ccc(N(C(C)C(=O)Nc2cccc(C)c2C)S(C)(=O)=O)cc1 (stereo unspecified),32.2
O=C(CSc1nnc(-c2ccncc2)n1-c1ccccc1)c1c[nH]c2ccccc12,5.5
Cc1sc2nc(SCC(=O)O)n(-c3ccc(Cl)c(Cl)c3)c(=O)c2c1C,26.8
C[C@@H]1CN([C@H](C)CO)C(=O)c2cccc(NC(=O)C3CC3)c2O[C@@H]1CN(C)Cc1ccc(Oc2ccccc2)cc1,1.7
CNC[C@@H]1Oc2ccc(NC(=O)Cn3cnnn3)cc2CC(=O)N([C@H](C)CO)C[C@@H]1C,-8.1
COc1ccc(OC)c(S(=O)(=O)Nc2ccc(O)c(Sc3nc4ccccc4s3)c2)c1,11.0
CCN(CC)C(=S)Oc1ccc(I)cc1,-3.7
CCC(SC1=NCCS1)C(=O)Nc1ccc(-c2nc3ccc(C)cc3s2)cc1 (stereo unspecified),24.8
COc1ccc(S(=O)(=O)Nc2cccc3c2O[C@H](CN(C)Cc2ccc(C(F)(F)F)cc2)[C@H](C)CN([C@@H](C)CO)C3=O)cc1,20.2
CC(C)(C)c1ccc(S(=O)(=O)NCc2cccnc2)cc1,8.3
CNC[C@@H]1Oc2ccc(NC(=O)c3ccncc3)cc2C(=O)N([C@@H](C)CO)C[C@H]1C,1.0
COc1cc(/C=C/C(=O)OC2CC3CCC2(C)C3(C)C)ccc1O (stereo unspecified),103.9*
C[C@H](CO)N1C[C@H](C)[C@H](CN(C)CC2CC2)Oc2c(NS(=O)(=O)c3cn(C)cn3)cccc2C1=O,-6.7
C[C@H](CO)N1C[C@H](C)[C@@H](CN(C)C(=O)Nc2ccc3c(c2)OCO3)Oc2ccc(NS(=O)(=O)c3ccc(F)cc3)cc2C1=O,4.1
Cc1noc(C)c1S(=O)(=O)Nc1cccc2c1O[C@@H](CN(C)CC1CCCCC1)[C@@H](C)CN([C@@H](C)CO)C2=O,29.7
CC(=O)c1cccc(N(CC(=O)O)S(C)(=O)=O)c1,-17.5
CS(=O)(=O)c1sc(C(=O)Nc2ccccc2Cl)c2c1C=CCC2,10.4
CNC[C@@H]1Oc2c(NS(=O)(=O)c3ccc(C)cc3)cccc2C(=O)N([C@@H](C)CO)C[C@@H]1C,5.8
Cc1sc2ncnc(SCC(=O)N3CCOCC3)c2c1-c1ccc(Cl)cc1,11.7
Cc1noc(C)c1NC(=O)Nc1ccc2c(c1)C(=O)N([C@H](C)CO)C[C@H](C)[C@@H](CN(C)C(=O)Nc1ccccc1)OCCCC[C@@H](C)O2,-4.7
COC(=O)C(C)Sc1nnc2c3ccccc3n(Cc3ccccc3)c2n1 (stereo unspecified),2.8
O=C(CSc1nc(O)cc(=O)[nH]1)N(c1ccccc1)c1ccccc1,-38.4
CN1/C(=C2/SC(=S)N(c3ccccc3)C2=O)Sc2ccccc21,14.3
COc1ccc(S(=O)(=O)N(C)C[C@H]2Oc3ccc(NS(=O)(=O)c4ccc(C)cc4)cc3CC(=O)N([C@@H](C)CO)C[C@H]2C)cc1,32.6
COc1ccc(OC)c(C(=O)CSc2nnc(-c3ccccc3F)n2-c2ccccc2)c1,12.0
O=C(O)c1cccc(NS(=O)(=O)c2cccc3cccnc23)c1,12.3
Cn1c(SCC(=O)O)nnc1-c1ccccc1,-20.2
C[C@@H]1CN([C@H](C)CO)C(=O)c2cc(NS(=O)(=O)c3cn(C)cn3)ccc2O[C@H]1CN(C)CC1CC1,12.0
COC(=O)c1ccccc1NC(=O)CN1C(=O)c2ccccc2S1(=O)=O,7.7
Cc1cccc(OCC(=O)Nc2ccc3oc(-c4ccncc4)nc3c2)c1,-7.9
COc1ccc(CCNC(=O)C(=O)c2c(-c3ccccc3)[nH]c3ccccc23)cc1OC,22.6
CC(C)NC(=O)Nc1ccc2c(c1)CC(=O)N([C@H](C)CO)C[C@@H](C)[C@@H](CN(C)Cc1ccc(C(=O)O)cc1)O2,3.3
Cc1ccc(C23CC4CC(CC(C(=O)NC5=NCCS5)(C4)C2)C3)cc1,10.5
C[C@@H]1CN([C@H](C)CO)C(=O)c2cc(NC(=O)CCCN(C)C)ccc2O[C@@H]1CN(C)S(=O)(=O)c1ccc(F)cc1,14.4
CC(=O)c1cccc(NC(=O)CCN2C(=O)C3CC=C(Cl)CC3C2=O)c1 (stereo unspecified),2.4
Cc1sc2nc(SCc3cc(=O)[nH][nH]3)nc(N)c2c1C,6.5
CC(C)NC(=O)Nc1cccc2c1O[C@H](CN(C)S(=O)(=O)c1ccccc1)[C@@H](C)CN([C@@H](C)CO)C2=O,6.7
C[C@H]1CN([C@@H](C)CO)C(=O)Cc2cc(NS(=O)(=O)c3cccs3)ccc2O[C@H]1CN(C)Cc1ccc(-c2ccccc2)cc1,114.6*
CCC(Sc1nnc(N)s1)C(=O)Nc1sc2c(c1C#N)CCCC2 (stereo unspecified),-17.3
Cc1ccc(S(=O)(=O)N(C)C[C@@H]2Oc3ccc(NC(=O)Nc4ccc5c(c4)OCO5)cc3C(=O)N([C@H](C)CO)C[C@H]2C)cc1,13.8
COc1ccc([C@@H]2Oc3c(OC)cc(CCCO)cc3[C@H]2CO)cc1OC,32.8
C=CCNC(=O)N1CC(Oc2ccc(Cl)cc2)C1,14.7
COC(=O)c1cc(O)cc(OC)c1Oc1cc(C)cc(O)c1C(=O)OC,25.4
O=C(c1ccccc1NS(=O)(=O)c1ccccc1[N+](=O)[O-])N1CCOCC1,-18.4
Cc1ccc(S(=O)(=O)Nc2ccc3c(c2)C(=O)N([C@@H](C)CO)C[C@@H](C)[C@H](CN(C)Cc2ccc(C(=O)Nc4ccccc4N)cc2)O3)cc1,17.0
C[C@H](CO)N1C[C@H](C)[C@H](CN(C)Cc2ccc(C(=O)Nc3ccccc3N)cc2)Oc2c(cccc2N(C)C)C1=O,124.4*
C[C@@H]1CCCCO[C@H](CN(C)Cc2ccccc2)[C@@H](C)CN([C@H](C)CO)C(=O)c2cc(NS(=O)(=O)c3ccc(F)cc3)ccc2O1,33.2
CCC/C=C/C=C/C1CC(O)C(O)C1C(=O)O (stereo unspecified),4.1
C[C@@H]1CN([C@H](C)CO)C(=O)c2cc(NS(=O)(=O)c3ccc(F)cc3)ccc2O[C@@H]1CN(C)C(=O)Nc1ccc2c(c1)OCO2,-7.3
C[C@@H]1CN([C@H](C)CO)C(=O)c2cccc(NC(=O)c3ccncc3)c2O[C@@H]1CN(C)S(=O)(=O)c1ccc(F)cc1,9.8
O=C(CCCSc1nc(-c2ccco2)cc(C(F)(F)F)n1)NC1CCCC1,46.5
C[C@H]1CN([C@@H](C)CO)C(=O)c2cc(NS(C)(=O)=O)ccc2O[C@H]1CN(C)Cc1ccc2c(c1)OCO2,1.2
S=C(NCc1ccco1)N1CCN(c2ncccn2)CC1,-4.8
O=C1c2ccccc2C2N1CCCN2S(=O)(=O)c1cccc(C(F)(F)F)c1 (stereo unspecified),0.3
C[C@@H]1CN([C@H](C)CO)C(=O)Cc2cc(N(C)C)ccc2O[C@H]1CN(C)S(=O)(=O)c1ccc(F)cc1,25.7
CCC(C)c1cc(N)nc2nc3ccccc3n12 (stereo unspecified),23.1
C[C@H]1CN([C@@H](C)CO)C(=O)c2cccc(NC(=O)Nc3ccc(C(F)(F)F)cc3)c2O[C@@H]1CN(C)Cc1ccc(-c2ccccc2)cc1,85.1*
Cc1noc(C)c1NC(=O)N(C)C[C@H]1Oc2ccc(NC(=O)Nc3cccc4ccccc34)cc2C(=O)N([C@@H](C)CO)C[C@H]1C,6.2
C[C@H](CO)N1C[C@H](C)[C@@H](CN(C)C(=O)Nc2ccc(F)cc2)Oc2ccc(NC(=O)CCN3CCOCC3)cc2C1=O,-10.1
CNC[C@H]1Oc2ccc(NC(=O)C3CC3)cc2C(=O)N([C@@H](C)CO)C[C@H]1C,-3.0

Next part.
molecule,NOMO-1 viab
C[C@@H]1CCCCO[C@H](CN(C)S(C)(=O)=O)[C@@H](C)CN([C@H](C)CO)C(=O)c2cc(NC(=O)CCCN(C)C)ccc2O1,4.8
C[C@@H]1CN([C@H](C)CO)C(=O)c2cc(NS(=O)(=O)c3ccc(Cl)cc3)ccc2O[C@H]1CN(C)C(=O)Nc1cccc2ccccc12,18.3
O=C(CCn1cnc2ccccc2c1=O)Nc1ccc(S(=O)(=O)N2CCCCC2)cc1,-2.1
COc1ccc(OC)c(S(=O)(=O)N(C)CC(=O)Nc2cccc(Cl)c2C)c1,-0.5
Nc1nc(COc2cccc3cccnc23)nc(Nc2ccccc2)n1,91.4*
COc1ccc(S(=O)(=O)N(C)C[C@H]2OCCCC[C@@H](C)Oc3ccc(NS(C)(=O)=O)cc3C(=O)N([C@H](C)CO)C[C@@H]2C)cc1,33.7
C[C@H](CO)N1C[C@H](C)[C@@H](CN(C)S(=O)(=O)c2cccs2)Oc2c(NC(=O)Nc3ccc(F)cc3)cccc2C1=O,8.4
Cc1ccc(-c2nc3ccccc3s2)cc1NC(=O)COc1ccccc1Cl,14.7
C[C@@H]1CN([C@@H](C)CO)C(=O)c2cc(NS(=O)(=O)c3ccc(F)cc3)ccc2O[C@H]1CN(C)C(=O)Nc1ccccc1,4.3
C[C@H](CO)N1C[C@H](C)[C@@H](CN(C)Cc2ccc(-c3ccccc3)cc2)Oc2c(NS(C)(=O)=O)cccc2C1=O,2.0
CNC[C@@H]1OCCCC[C@@H](C)Oc2ccc(NS(=O)(=O)c3ccc(C)cc3)cc2C(=O)N([C@H](C)CO)C[C@@H]1C,-7.3
CC(=O)O[C@@H]1C=C[C@@]2(C)C(C[C@@H](OC(C)=O)[C@@]3(C)C4=CC(=O)O[C@@H](c5ccoc5)[C@]4(C)CCC23)C1(C)C (stereo partly specified),106.2*
COc1cc2c(cc1NC(=O)C(C)Oc1ccc(Cl)cc1Cl)oc1ccccc12 (stereo unspecified),22.5
CCOC(=O)c1ccc(COc2ccc(-c3cnc4ccccc4n3)cc2)o1,-4.3

Not all compounds are listed (hit frequency here may not be typical).
